# Screening results deposited in PubChem BioAssay by ICCB-Longwood Screening Facility, Harvard Medical School.
# Sa growth 42C = inhibitors of Staphylococcus aureus growth at 42 °C | S. aureus RN4220 growth, OD600, 20 h; active compounds read low | AID 720641 | relative growth, % (concentration not given with the values) | 170,000 compounds, 0.53% hits;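 active = growth at 42 °C up to 50% and 20 or more points under that at 30 °C, or under 10% at both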;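 also: 300 nL library stock went into each well; scaled to the means of positive and negative controls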
# HCMV NEC inh = inhibitors of HCMV UL50-UL53 nuclear egress complex interaction; inhibition, % (test concentration not listed); 190,000 compounds, 0.15% hits; HTRF UL50-UL53 interaction, normalized percent inhibition;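 active = both replicates at 50% or more, plus weaker picks with an unusually low signal ratio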;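 also: stock transfer was 100 nL into about 20 µL; 0% = negative control wells and 100% = wells with untagged competitor protein; inactives centre near -12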
# GIV Gai3 FP = blocks GIV peptide binding to rat Galpha-i3. Galpha-i3/FITC-GIV peptide fluorescence polarization, 90 min; active compounds read low; scaled: aluminum fluoride 0%, vehicle 100%. percent of control (FP), % (concentration not given with the values). AID 1224905. 210,000 compounds, 0.42% hits;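 active = replicate mean at 85% of control or lower, very high polarization wells dropped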;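 also: wells of about 15 µL received 100 nL stock; the first replicate is given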
# Target sequence (P08753 whole entry, looked up): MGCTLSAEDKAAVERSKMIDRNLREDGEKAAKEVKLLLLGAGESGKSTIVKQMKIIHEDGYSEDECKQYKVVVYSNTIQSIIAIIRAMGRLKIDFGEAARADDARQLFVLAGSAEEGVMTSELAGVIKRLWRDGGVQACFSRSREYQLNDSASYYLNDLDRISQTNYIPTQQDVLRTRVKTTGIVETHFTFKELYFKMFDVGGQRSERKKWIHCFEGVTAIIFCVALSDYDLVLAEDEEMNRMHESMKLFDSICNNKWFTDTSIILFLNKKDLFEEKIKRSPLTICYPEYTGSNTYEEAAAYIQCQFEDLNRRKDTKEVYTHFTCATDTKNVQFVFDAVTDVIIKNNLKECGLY
# Sa growth 42C second temp = second read-out of Sa growth 42C, no call of its own (marks repeat the call); relative growth, %; measured here: growth at 30 °C;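 optical density after 20 h as mean of two plates; 100% = untreated growth and lower means inhibition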
# The depositor's hits bear a star; . = no result given; & = joins results of further samples.
entry	Structure	Sa growth 42C	GIV Gai3 FP	HCMV NEC inh	Sa growth 42C second temp
1	CCOC(=O)c1cnc2cc(Cl)c(F)cc2c1N1CC(C)OC(C)C1 (centres undefined)	79	103	-2	86
2	COc1ccc(CCNC(=O)c2cnc3sc(N4CCCCC4)nn3c2=O)cc1OC	97	96&101	-3	90
3	Cc1ccc(N2C(=O)NC(NS(=O)(=O)c3ccc(Cl)cc3)(C(F)(F)F)C2=O)cc1C (centres undefined)	99	98	-3	89
4	O=c1cnnc(NC2CCCCC2)[nH]1	94	107	-8	90
5	CNC(=O)C(C)n1nc(C)c2nn(-c3ccccc3)c(-n3cccc3)c2c1=O (centres undefined)	.	107	11	.
6	CC1(C)CC(=O)C(C=NC23CC4CC(CC(C4)C2)C3)=C(O)C1	100	99	-17	89
7	Cc1cc(C)c2c(=O)n(CC(=O)NCCc3ccc(Cl)cc3)sc2n1	106	103	.	83
8	CN(C)c1cc(NCCN2CCCCC2)c2c3c(onc13)-c1ccccc1C2=O	106	213	-136	87
9	O=C(c1cccnc1Nc1cccc(Cl)c1)N1CCCCC1	106	98	10	131
10	Cc1nc(-n2[nH]c(C)c(Cc3ccccc3Cl)c2=O)sc1C(=O)N1CCCC1	.	99	-25	.
11	CCCn1nnnc1NC(=S)NC(=O)c1cc2ccccc2o1	119	105	-16	39
12	Cc1ccc(C(=O)c2cn(Cc3ccccc3)c3nc(C)ccc3c2=O)cc1	85	103	-24	90
13	CCNC(=O)c1ccc2c(c1)CCCN2S(C)(=O)=O	.	100	-11	.
14	COCC(C)NC(=S)Nc1ccc(F)cc1 (centres undefined)	93	.	-10	86
15	Oc1ccc(-c2nnc(SCC3CCCCC3)o2)cc1	91	100	-20	100
16	Cc1ccc(NC(=O)/C(CN(C)C)=N\O)cc1	96	100	.	87
17	CCCN(CC(=O)Nc1ccccc1C)C(=O)c1cc(=O)[nH]c2ccccc12	80	.	-5	89
18	O=C(Nc1ccccc1)OCC#Cc1ccc(-c2ccccn2)s1	113	104	-46	76
19	O=C(NCc1ccccc1)c1nnc(-c2ccc3c(c2)OCO3)o1	99	101	-8	91
20	Cc1cccc(N2CCN(C(=O)C3CCN(c4ncnc5c4nc4n5CCCCC4)CC3)CC2)c1C	119	102	.	101
21	Cc1ccc(-c2c(C(=O)N3CCN(c4ccc(F)cc4)CC3)oc(=O)c3ccccc23)cc1	95	109	9	97
22	CC1(C)Cc2c(sc(/N=C/N3CCCC3)c2C#N)C(C)(C)N1	60	105	-10	78
23	Cc1cccc(-n2c3nc(=O)[nH]c(=O)c-3cc3ccccc32)c1	101	99	.	79
24	NC(=S)c1ccccc1N	89	103	-2	92
25	COCCNC(=O)c1ccc(Cn2c(SCC(=O)NC(C)C)nc3ccccc3c2=O)cc1	102	97	.	89
26	CCOc1ccc(NC(=O)c2c(NC(=O)Cc3ccccc3)sc3c2CCCC3)cc1	99	102	-10	92
27	Cc1nnc(SCC(=O)Nc2ccc3[nH]c(=O)[nH]c3c2)n1-c1ccccc1	97	.	-26	83
28	CCOCCOC(=O)C(C)Oc1ccc2c(=O)c(-c3ccccc3OC)c(C(F)(F)F)oc2c1 (centres undefined)	.	107	6	.
29	CN(CC(=O)N1CCc2ccccc2C1)S(=O)(=O)c1cnc[nH]1	92	107	-9	87
30	O=C(Nc1cnn(Cc2ccc(Cl)cc2)c1)c1ccccc1	107	107	-9	101
31	COC(=O)C1C(C(C)C)N(c2ccccc2)OC1(C)O (centres undefined)	89	102	-21	85
32	CC(=O)OCC(=O)[C@@]1(O)CCC2C3CCC4=CC(=O)CC[C@]4(C)C3[C@@H](O)C[C@@]21C (some centres undefined)	99	.	-9	90

# Pulled one by one from the list above:
entry	Structure	Sa growth 42C	GIV Gai3 FP	HCMV NEC inh	Sa growth 42C second temp
7	Cc1cc(C)c2c(=O)n(CC(=O)NCCc3ccc(Cl)cc3)sc2n1	106	103	.	83
8	CN(C)c1cc(NCCN2CCCCC2)c2c3c(onc13)-c1ccccc1C2=O	106	213	-136	87
17	CCCN(CC(=O)Nc1ccccc1C)C(=O)c1cc(=O)[nH]c2ccccc12	80	.	-5	89
12	Cc1ccc(C(=O)c2cn(Cc3ccccc3)c3nc(C)ccc3c2=O)cc1	85	103	-24	90
31	COC(=O)C1C(C(C)C)N(c2ccccc2)OC1(C)O (centres undefined)	89	102	-21	85

# Going on with the list:
entry	Structure	Sa growth 42C	GIV Gai3 FP	HCMV NEC inh	Sa growth 42C second temp
33	C/[N+]([O-])=C\C1C(=O)CCCC1=O	.	99	-2	.
34	COc1ccc(-c2nc3ccccc3o2)cc1NC(=O)COc1ccc(C)c(C)c1	108	105	.	85
35	O=C(OCn1nnc2ccccc2c1=O)c1cccc(S(=O)(=O)N2CCCCC2)c1	108	.	5	90
36	COc1cc(C2CC(=O)n3nc(-c4ccccc4)nc3S2)cc(OC)c1OC (centres undefined)	99	106	3	93
37	CCn1c(C)c(C)c2cc(C(=O)NCc3ccc(OC)cc3OC)ccc21	114	111	.	89
38	CCCn1c(NCc2ccc(Cl)cc2)nc2ccccc21	88	104	-32	82
39	CCN(CC)S(=O)(=O)c1ccc(C2CNC(=O)C2)cc1 (centres undefined)	102	94	-12	86
40	c1nc(NCCN2CCOCC2)c2ccsc2n1	92	.	-2	94
41	CCOc1ccccc1C(=O)Nc1cc2c(cc1C)n(C)c(=O)c(=O)n2C	85	105	.	90
42	CN(C)CCNC(=O)c1ccc(Cn2c(SCc3ccc(F)cc3)nc3cccnc32)cc1	99	102	.	117
43	Cc1nn(CCO)c(C)c1Oc1ccccc1O	112	.	-28	89
44	Cc1ccc(NC(=O)Cn2cc(S(=O)(=O)c3ccc(C)cc3)c(=O)c3cc4c(cc32)OCO4)cc1	106	105	-10	83
45	COc1cc(C=Nc2ccc(Cl)cc2)ccc1OC(=O)/C=C/c1cccs1	88	94	-30	90
46	CN(C(=O)Cn1cc(S(=O)(=O)Cc2ccccc2Cl)c2ccccc21)c1ccccc1	104	108	.	112
47	Cc1oc(C2CC2)cc1C(=O)O	110	99	-3	74
48	Cc1nc2sc(C(c3ccccc3)N3CCc4ccccc4C3)c(O)n2n1 (centres undefined)	111	92	-1	97
49	COc1ccc(NC(=O)C(C)Sc2nc(N)cc(=O)[nH]2)cc1 (centres undefined)	96	97	-14	78
50	CC(=O)Nc1cc2c(nc1C)nc(C)n2Cc1ccc(Br)cc1	105	104	-30	88
51	CCOC(=O)C1=C(C2CC=CCC2)NC(=S)NC1C (centres undefined)	102	.	1	95
52	COc1ccc2nc(SCC(=O)Nc3ccc(NC(C)=O)cc3)[nH]c2c1	.	105	3	.
53	O=C(c1c[nH]c2ccccc12)C(Sc1nnc(C2CC2)o1)c1ccccc1 (centres undefined)	119	.	-22	78
54	COC(=O)C(C(=O)OC)=C1C2CC3CC(C2)CC1C3	111	.	4	90
55	NC(=O)Cn1c(CN2CCCC2c2nc3ccccc3s2)nc2ccccc2c1=O (centres undefined)	95	.	-16	88
56	O=c1oc(-c2cccc(C(F)(F)F)c2)nc2ccccc12	48	.	2	25
57	O=C(Cn1c(=O)c2cccn2c2ccc(F)cc21)N1CCc2ccccc21	94	101	-1	88
58	Cc1cc(C)n(CCCC(=O)O)n1	94	104	-7	82
59	O=C(CN1C(=O)CCn2nc(-c3cccc(Cl)c3)cc21)N1CCCCC1	.	109	-6	.
60	Cc1ccc(Nc2c(C(C)C)c(C)c(C#N)c3nc4ccccc4n23)cc1	101	106	-42	79
61	O=C(Nc1ccc(Cl)cn1)c1ccccc1-c1nc(-c2ccccc2)no1	.	93	-9	.
62	CCN1C(=O)C[C@@H](C(=O)O)[C@@H]1c1ccc(OC)cc1OC	91	103	15	93
63	Cc1c(C(=O)CSc2n[nH]c(=O)n2Cc2ccco2)sc2ccc(Cl)cc12	92	108	-14	70
64	Cc1sc(-c2noc(C3CC3)n2)cc1NC(=O)c1cnccn1	.	108	-11	.
65	Cc1ccc(Cn2ccsc2=NC(=O)CSc2nnc(-c3cccnc3)n2N)cc1	112	.	-15	86
66	Cc1ccc(-n2nnnc2-c2c[nH]c3cc(Cl)ccc23)cc1	100	107	6	95
67	Cc1ccc(Cl)cc1N1C(=O)CC(Sc2ccccc2N)C1=O (centres undefined)	106	100	-8	99
68	Cc1cc(C(=O)Nc2ccc3nc(C)sc3c2)c(C)o1	97	.	-4	94
69	Cc1cc(S(=O)(=O)NC(c2ccc(Cl)cc2)c2nnc(-c3ccccc3)o2)ccc1F (centres undefined)	.	99	-28	.
70	CCOC(=O)C1CCCN(C(=O)Cn2nc(CC)n3c(cc4occc43)c2=O)C1 (centres undefined)	101	103	-6	90
71	COc1cccc(CC(=O)Nc2nccs2)c1	98	.	0	95
72	CCOc1ccc(S(=O)(=O)N2CCC(c3ccncc3)CC2)cc1	115	106	.	101
73	COc1cccc(CNC(=O)Cc2ccc(NC(=O)N3CCCCc4ccccc43)cc2)c1OC	117	100	.	94
74	Cc1cc2c(cc1S(=O)(=O)CCC(=O)Nc1ccccc1F)OCC(=O)N2	.	114	2	.
75	FC(F)(F)c1cnc(NC2CC2)c(Cl)c1	.	101	-47	.
76	O=C1CCC(=O)N1CCOP1(=O)COc2ccccc2OC1	104	104	.	91
77	CC(C)c1ccccc1NC(=O)c1cc2ccccc2oc1=O	112	100	.	92
78	COc1ccc(-c2noc(-c3cn(Cc4ccc(NS(=O)(=O)c5ccc(Cl)cc5)cc4)cn3)n2)cc1OC	.	100	-6	.
79	COc1ccccc1OC(C)C(=O)NCc1ccccc1 (centres undefined)	93	106	20	103
80	Cc1ccc(C2NC(=O)c3c(sc4c3CCC(C(C)(C)C)C4)N2)o1 (centres undefined)	94	105	-30	91
81	Cc1cc2[nH]c(=O)c(=O)[nH]c2cc1S(=O)(=O)N1CCN(c2ccccc2)CC1	118	105	.	86
82	COc1ccccc1-c1nnc(Cc2ccc(F)cc2Cl)o1	90	99	6	73
83	COc1cc(C(=O)NC2(C(F)(F)F)C(=O)NC(C)=C2C#N)cc(OC)c1OC (centres undefined)	100	101	.	88
84	CCNc1nc(NCC)nc(OCCNC(=O)COc2ccc(Cl)cc2Cl)n1	.	101	-14	.
85	Nc1nc(Cl)cc(N2CCCCC2)n1	84	117	6	82
86	CN(C)CC/C=C1/c2ccccc2COc2ccccc21	91&99	.	-11&-1	77&95
87	COC(=O)C1=CN(CCCN2CCCC2=O)C=C(C(=O)OC)C1c1cccs1	101	101	-23	76
88	O=C(OCc1nc2sc3c(c2c(=O)[nH]1)CCCC3)c1cc2c(s1)CCC2	87	.	-27	70

# Record cards, as listed above. Screens in order: Sa growth 42C	GIV Gai3 FP	HCMV NEC inh	Sa growth 42C second temp
# COc1cc(C(=O)NC2(C(F)(F)F)C(=O)NC(C)=C2C#N)cc(OC)c1OC (centres undefined) is entered as 100	101	.	88
# CN(C)CC/C=C1/c2ccccc2COc2ccccc21 is entered as 91&99	.	-11&-1	77&95

# Next structures:
entry	Structure	Sa growth 42C	GIV Gai3 FP	HCMV NEC inh	Sa growth 42C second temp
89	CSc1ccccc1C(=O)NC(C)C	105	101	-3	102
90	Cc1cc(N2CC(C)CC(C)C2)nc2ccc(NC(=O)CCC(=O)N3CCCC3)cc12 (centres undefined)	90	102	.	93
91	CCOC(=O)c1cnc2c(ccc3ccccc32)c1Nc1ccc(OC)cc1OC	104	101	-17	80
92	c1ccc2c(c1)C(=NCC1CCCO1)NC2=NCC1CCCO1 (centres undefined)	93	.	-77	90
93	Cc1ccc(-n2cnc3cc(NCc4cccs4)ccc32)cc1	88	100	-3	29
94	COc1ccc2c(c1)NC(=O)CC(C)(C)O2	103	104	.	89
95	O=C(Nc1nccs1)c1ccccc1C(F)(F)F	115	.	-38	87
96	O=C(NCc1ccccc1)c1cc2sccc2s1	103	102	-4	100
97	O=C(CSc1nc2ccsc2c(=O)n1C1CC1)OCc1ccccc1	97	99	10	89
98	Cc1ccc(-c2nn(CC(N)=O)c(=O)c3ccccc23)cc1	92	101	1	100
99	CCOC(=O)C1=C(C)N=c2s/c(=C\c3ccc(OC)c(OC)c3)c(=O)n2C1c1ccc2c(c1)OCO2 (centres undefined)	.	101	7	.
100	Cn1cc(C(=O)NCCN2CCN(Cc3ccccc3)CC2)c2c3ccccc3n(C)c2c1=O	104	101	-36	87
101	CCOC(=O)c1ccc(NC(=O)CN2c3ccccc3S(=O)(=O)c3ccccc32)cc1	114	99	.	96
102	Cc1oc(-c2ccccc2)nc1C(=O)OC(C)c1nc2sc(C)c(C)c2c(=O)[nH]1 (centres undefined)	83	.	11	93
103	CC(C)C(=O)NC(C)c1nc(-c2ccccc2Cl)no1 (centres undefined)	.	101	-9	.
104	CCc1ccc(-n2nc3ccc(NC(=O)c4ccc(C#N)cc4F)cc3n2)cc1	108	103	-18	87
105	CN1CCN(c2ncc3c(n2)CCN(Cc2cc(Br)cs2)C3)CC1	116	109	.	102
106	COc1ccccc1C1CC(c2ccc(Br)cc2)=NN1C(=O)c1cccnc1 (centres undefined)	.	101	-10	.
107	Cc1ccc(S(=O)(=O)N(Cc2nc(-c3ccccc3)no2)C2CCCCC2)cc1	108	99	-13	92
108	COc1cccc(CNC(=O)Cn2ncn3nc(-c4cccs4)cc3c2=O)c1	113	97	-18	79
109	Oc1ccc(Cl)cc1Sc1cc(Cl)ccc1O	3.6*	.	-2	5.7*
110	COc1cc(C(=O)NC2CC(=O)N(c3cccc(F)c3)C2)cc(OC)c1OC (centres undefined)	120	99	.	88
